Bioassay records: PubChem, several laboratories
MLL AF4-AF9 inh = inhibitors of AF4 peptide binding to AF9, primary screen, biochemical, AlphaScreen, biotin-AF4 peptide, FLAG-AF9, single point. AID 651704, 2012. inhibition, % at 10 µM. 350,000 compounds, 0.47% hits;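 active = every replicate reaching a set inhibition limit, whatever the replicate mean, cut at about 25% in these data; inconclusive = mean inhibition reaches that limit but some replicates miss it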;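 also: 0% = plate neutral control median and 100% = total signal loss; the record names both 10 and 1 µM as test concentration; the first replicate is given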
Target sequence (P42568 whole entry, looked up): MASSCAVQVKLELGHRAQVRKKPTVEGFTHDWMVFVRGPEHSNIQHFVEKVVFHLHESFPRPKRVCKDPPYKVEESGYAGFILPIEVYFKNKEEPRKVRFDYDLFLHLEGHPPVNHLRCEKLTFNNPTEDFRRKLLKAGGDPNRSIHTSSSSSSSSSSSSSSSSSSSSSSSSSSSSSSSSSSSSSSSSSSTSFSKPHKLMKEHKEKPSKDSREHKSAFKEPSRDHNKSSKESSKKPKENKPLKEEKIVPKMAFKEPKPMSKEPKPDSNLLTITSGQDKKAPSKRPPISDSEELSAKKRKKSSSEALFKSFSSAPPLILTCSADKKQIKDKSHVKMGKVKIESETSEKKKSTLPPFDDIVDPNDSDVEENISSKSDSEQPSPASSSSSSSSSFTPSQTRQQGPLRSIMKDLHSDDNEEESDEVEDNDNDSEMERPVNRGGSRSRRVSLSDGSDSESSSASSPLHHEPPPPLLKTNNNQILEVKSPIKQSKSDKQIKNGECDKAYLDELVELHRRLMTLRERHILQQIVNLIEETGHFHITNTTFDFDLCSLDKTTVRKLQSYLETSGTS
Bfl-1 A1 inh = caspase 3/7 activation in MEF A1-2A-BIM cells, primary screen, A1 inhibitor project, cell-based, luminescence, HTS; caspase activation, % (concentration not given with the values); Caspase-Glo 3/7 luminescence, 3 h; percent of clofoctol response, vehicle zero; 330,000 compounds, 0.066% hits;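 active = over half of replicate activation scores above 10%, or exactly half above 10 with the replicate mean above 10; inconclusive = replicate mean below 10 yet half the replicates above 10; inactive = over half of replicates below 10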;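 also: wells of about 30 µL received 50 nL stock; many hits fall short of the cut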
Beta cell apopt = inhibitors of cytokine-induced beta cell apoptosis, primary screen, luminescence; AID 435005, 2010; protection from apoptosis, % (no concentration beside the values); INS-1E cytokine-induced death, ATP luminescence, 48 h; percent of positive-control rescue, neutral wells zero; 300,000 compounds, 0.8% hits;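 active = all replicates at 75% or more, or half of them and the mean; inconclusive = half reach 75% but not the mean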;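 also: 0% = cytokine-treated negative control wells and 100% = positive control rescue; higher means more ATP so stronger rescue from cytokine killing; wells of about 40 µL received 100 nL stock; the first replicate is given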
LANA-H2B inh = blockers of LANA interaction with H2A/H2B – biochemical, FP readout, HTS, primary screen; Protein LANA1 (Human herpesvirus 8 type P (isolate GK18)), Q9QR71; cell-free LANA-H2A/H2B peptide, fluorescence polarization; inhibition, % (concentration not given with the values); 320,000 compounds, 0.6% hits; in the data active = inhibition mostly above about 10%, no sharp cut-off; inactive = mostly below about 6.7%;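 also: stock transfer was 7.5 nL into about 10 µL; 0% = median of vehicle wells and 100% = median of positive control wells; one replicate is shown; the record names a cut of 25% in any replicate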
RanGTP-Impb inh = inhibitors of RanGTP-importin-beta interaction, primary screen, biochemical, FRET, CFP-Ran, YFP-importin-beta, homogeneous; Ran GTPase (GTP-bound) - importin-beta complex; cell-free CFP-Ran/YFP-importin-beta FRET ratio; inhibition, % (no concentration beside the values); 300,000 compounds, 1.1% hits; AID 2216, 2009;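 active = most replicates above 15%; inconclusive = exactly half above 15%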;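 also: 0% = DMSO wells and 100% = Ran loaded with GDP instead of GTP; wells of about 40 µL received 100 nL stock; the first replicate is given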
T cruzi repl = inhibitors of intracellular T. cruzi growth, primary screen, luminescence, NIH3T3 host cells; inhibition, % (concentration not given with the values); T. cruzi beta-gal in NIH3T3, 90 h; 300,000 compounds, 1.4% hits; AID 1885, 2009;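 active = mean inhibition across valid replicates above about 55%, limit read from the data; inconclusive = mean below that limit but half or more replicates reach it; inactive = mean below it, under half of replicates reach it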;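 also: signal also drops with host cell toxicity which is not excluded here; 0% = plate median of DMSO wells and 100% = zero luminescence signal; higher percent means less beta-gal luminescence so fewer parasites; stock transfer was 50 nL into about 50 µL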
Calb FLC = C. albicans growth inhibition with fluconazole, primary screen, CaCi-2 strain, Alamar Blue fluorescence. C. albicans CaCi-2 (fluconazole-resistant clinical isolate) + fluconazole, 48 h. growth inhibition, % (no concentration beside the values). 300,000 compounds, 0.57% hits. AID 1979, 2009;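 active = most replicates above 75%; inconclusive = exactly half above 75%; inactive = most below 75%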;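 also: all wells also contain fluconazole at 8 µg/ml as a sub-toxic cotreatment; 0% = median of DMSO wells and 100% = median of geldanamycin control wells; wells of about 8 µL received 7.5 nL stock; the first replicate is given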
Vif TR-FRET = inhibitors of Vif binding to APOBEC3G peptide, primary screen, biochemical, TR-FRET, GST-Vif 1-94, biotin-A3G peptide, dose response retest (AID 1117319) | TR-FRET GST-Vif / biotin-A3G peptide binding; higher % means a stronger effect; test concentration not given here; strong numbers were not always called active | one-dose inhibition, %; IC50 in µM for titrated hits | Virion infectivity factor (Human immunodeficiency virus type 1 group M subtype B (isolate … | 260,000 compounds, 0.57% hits;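 active = above the screen mean plus three standard deviations and confirmed in dose response; inconclusive = results disagree or hit not tested in dose response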;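 also: Vif residues 1-94 fused to GST binding biotinylated APOBEC3G peptide 110-148; 0% = full assay without inhibitor and 100% = GST in place of GST-Vif; retest series ran down from 100 µM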
Numbers without * were called inactive; ? = inconclusive; . = no result given.

canonical_smiles,LANA-H2B inh,Vif TR-FRET,RanGTP-Impb inh,Beta cell apopt,Calb FLC,Bfl-1 A1 inh,T cruzi repl,MLL AF4-AF9 inh
Cc1ncc(CN2CCC(CO)(Cc3ccccc3)CC2)s1,3.3,.,3.0,-2.1,-0.7,0.3,28.9,-2.9
Cc1ccnc(SCc2nc3ccccc3s2)n1,-3.9,0.2%,?,-1.8,0.0,-3.0,-4.9,.
COc1ccc(/C=C(\C#N)C(=O)NCC2CCCO2)cc1OC (stereo not given),4.3,-1.7%,-0.2,-4.3,5.8,1.6,10.2,.
O=C(/C=C(\O)c1ccc(Cl)cc1)C(=O)NNC(=O)C(O)(c1ccccc1)c1ccccc1,12.9,0.5%,.,-4.8,.,-0.8,.,.
CCOc1ccc(NC(=O)c2ccc3c(=O)n(-c4ccc(OC)cc4OC)c(=S)[nH]c3c2)cc1,-9.3,.,3.3,-1.6,10.7,-0.8,-22.0,4.6
O=C(CN1CCOCC1)Nc1ncc(Cc2cccc3ccccc23)s1,-3.4,-2.9%,2.6,2.6,8.8,-0.5,-0.1,7.1
CCOC(=O)c1c(-c2ccccc2)nc2ccc(C)cn12,0.1,-4.4%,0.7,-3.5,16.5,-0.1,3.9,.
O=C(NCc1nc2ccccc2[nH]1)c1ccccc1F,-4.1,26.6%,-1.6,.,-0.1,1.1,7.9,-11.2
O=C(CNC(=O)c1ccc(S(=O)(=O)N2CCCC2)cc1)N/N=C/c1ccc(F)cc1,2.2,6.4%,-1.0,-8.1,7.9,1.4,-3.7,-2.6
O=C1CCC(C(=O)N2CCc3c(Cl)cccc3C2)CN1CCCN1CCOCC1 (stereo not given),6.4,.,-0.1,1.9,-15.8,-0.2,10.0,1.0
O=C(O)c1ccc(C(=O)Nc2ccc(F)cc2)cc1,-1.4,.,.,-3.3,.,-9.5,.,-17.6
O=C(O)c1cc(-c2ccccc2)on1,4.9,?,1.7,-2.5,?,1.1,-1.2,2.4
CN1CCN(c2ccccc2NC(=O)c2cc3ccccc3o2)CC1,-2.4,1.2%,2.9,-17.7,-38.0,0.5,-0.6,.
CC1CCCCC1NC(=O)c1c(O)nc2ccccn2c1=O (stereo not given),-3.0,-12.1%,0.6,.,-14.1,-0.3,-3.9,0.9
Cc1ccc(C(=O)NCCCNC(=O)COc2ccc(Cl)cc2)cn1,-14.3,-5.5%,-1.6,1.2,-3.1,3.1,6.3,1.1
O=c1cnn(Cc2ccc(Cl)c(Cl)c2)c2ccccc12,0.4,.,-0.1,-3.7,-1.7,0.0,-6.9,-0.3
CC(C)=CC(O)C/C(C)=C/COc1ccc2ccc(=O)oc2c1 (stereo not given),5.0,.,5.4,.,-3.9,0.5,0.8,-0.8
COc1ccc(/C=N/NC(=O)CCc2n[nH]c(=O)[nH]c2=O)cc1OC,-2.6,.,4.5,4.1,18.5,-1.0,-4.1,.
COc1cccc(OC)c1C(=O)Nc1ccc2c(c1)N(S(=O)(=O)c1cccs1)CCC2,-2.8,.,-0.4,9.7,9.6,-0.6,20.0,3.5
Cc1ccc(S(=O)(=O)Nc2ccccc2N2CCCCC2)cc1,0.3,.,.,3.0,.,0.9,.,-1.6

More results
canonical_smiles,LANA-H2B inh,Vif TR-FRET,RanGTP-Impb inh,Beta cell apopt,Calb FLC,Bfl-1 A1 inh,T cruzi repl,MLL AF4-AF9 inh
COc1cc(OC)c(C(=O)Oc2ccc3c(c2)OCO3)cc1OC,-2.5,-0.1%,3.3,-1.8,4.4,-0.1,-2.0,.
COc1ccc2nc(SCC(=O)Nc3cc(OC)c(OC)cc3C(=O)O)c(C)cc2c1,-3.8,2.1%,-0.9,-24.8,1.2,0.0,-10.9,-2.7
O=C(CCCNC(=O)/C(=C/c1ccccc1F)NC(=O)c1ccccc1)OCc1ccccc1,-0.8,.,2.2,4.9,22.0,0.7,6.9,-1.6
CCOC(=O)C(Oc1ccc2c(-c3ccccc3)cc(=O)oc2c1)c1ccccc1 (stereo not given),-2.5,-1.9%,3.7,-0.6,42.8,0.8,31.3,3.5
CCC(C(=O)NCc1ccccn1)n1c2ccccc2c2nc(=O)cc(C)n21 (stereo not given),1.2,.,-1.4,-2.7,5.5,1.5,-0.4,-0.6
COc1ccc(CCn2c(=S)[nH]c3cc(C(=O)NCc4ccco4)ccc3c2=O)cc1OC,3.7,6.5%,-3.7,36.3,5.3,0.8,?,.
CC(Sc1nnc(-c2cccnc2)o1)C(=O)NC1CCCC1 (stereo not given),2.6,-7.0%,.,-1.9,.,0.5,.,-3.6
CCN(CC)S(=O)(=O)c1ccc(OC)c(NC(=O)c2cccc(C)c2[N+](=O)[O-])c1,-0.7,-0.6%,-0.2,-9.1,49.6,1.1,12.5,1.4
COc1ccc(C2=Nn3c(nnc3-c3ccccc3OC)SC2)cc1OC1CCOC1 (stereo not given),-6.0,.,.,7.0,.,-0.2,.,8.1
COc1cccc(NC(=O)COC(=O)CC2CC3CCC2C3)c1 (stereo not given),-4.8,.,.,-4.0,.,0.1,.,-2.4
O=C(COC(=O)c1cnccn1)Nc1ccc2c(c1)OCO2,2.7,14.2%,-1.5,0.2,-3.6,?,.,.
CCCc1nnc(NC(=O)C(=O)NCCN(CC)CC)s1,.,-12.5%,-0.2,.,-0.5,.,-7.4,0.2
O=C(Nc1cccnc1)C1CCCN1S(=O)(=O)c1ccc(Cl)c(Cl)c1 (stereo not given),-2.1,-6.2%,-0.2,-1.0,10.7,0.4,2.9,-27.3
COc1cc(Cn2c(-c3ccc(O)c(OC)c3)nc3ccccc32)ccc1O,4.1,26.6%,1.3,4.4,-2.3,0.3,11.5,10.7
COc1ccc(C)cc1N(CC(=O)Nc1ccc(S(=O)(=O)N2CCCC2)cc1)S(C)(=O)=O,1.7,.,3.1,1.1,-0.6,0.6,5.6,0.3
CCc1nnc(NC(=O)CSc2ncc(-c3ccccc3)[nH]2)s1,5.6,14.1%,?,-2.3,23.0,0.9,-19.1,-35.9
CCCN1C(=O)c2ccc(C(=O)Nc3ccccc3C(=O)O)cc2C1=O,2.0,4.0%,-1.3,-0.8,-6.4,-6.2,-10.0,-1.7
CN(CCc1cn[nH]c1)Cc1nc(C(c2ccccc2)c2ccccc2)no1,-0.5,-8.2%,0.2,-9.5,-13.4,0.4,14.7,2.9
CCN(CC)S(=O)(=O)c1cc(Cl)ccc1OC,-7.7,3.2%,2.1,.,-16.1,-0.3,-12.9,-2.7
COCCNC(=O)C1CCC(=O)N1S(=O)(=O)c1ccc(C)cc1 (stereo not given),2.1,.,-2.2,.,32.5,1.1,-0.8,-1.6

Remaining list, next part:
canonical_smiles,LANA-H2B inh,Vif TR-FRET,RanGTP-Impb inh,Beta cell apopt,Calb FLC,Bfl-1 A1 inh,T cruzi repl,MLL AF4-AF9 inh
CCOC(=O)CCC(NC(=O)c1ccc(NCN2C(=O)CCC2=O)cc1)C(=O)OCC (stereo not given),-0.1,19.1%,2.0,-1.2,7.9,1.4,-13.8,.
Cc1ccccc1OCC(=O)NCCC(=O)O,-2.5,3.0%,0.6,-1.8,-29.6,-0.3,-13.3,.
CCCCn1nc2cc(C(=O)NCCc3ccc(C)cc3)ccc2c1OCC,-1.3,0.5%,-2.6,-1.4,17.1,0.1,-6.5,.
COc1ccc(NC(=O)CSc2ncnc3c2cnn3Cc2ccccc2)cc1OC,5.2,23.2%,?,-2.9,-26.0,-2.8,-9.7,.
CC(=O)N1CCN(c2ccnc3cc(Cl)ccc23)CC1,-3.5,23.8%,1.7,-10.9,0.9,-0.4,2.6,1.6
Cc1ccc(C(=O)N(CC(=O)Nc2sc(C)c(C)c2C(N)=O)C2CCCC2)cc1,-3.0,.,4.2,2.0,10.8,0.2,3.3,-1.1
Cc1ccccc1OCC(=O)Nc1cc(S(=O)(=O)N2CCOCC2)ccc1N1CCCC1,6.9,9.0%,.,-7.3,.,1.0,.,4.7
CCNC(=O)C(Cc1ccccc1)NC(=O)OCc1ccccc1 (stereo not given),2.3,-10.2%,3.2,-6.9,5.3,0.0,0.5,0.1
CCC1(C)OC(=O)N(CCCn2ccnc2C)C1(C)O (stereo not given),1.3,5.3%,2.0,7.1,-3.2,-0.5,-14.1,.
CC1CC(C)CN(S(=O)(=O)N2CCCC(C(=O)NC3CCCCC3)C2)C1 (stereo not given),-4.2,.,3.9,2.0,0.6,0.2,-0.7,0.0
Cn1cc(C(N)=O)c2ccccc21,0.0,-5.2%,?,-7.7,-1.5,-1.0,-15.2,-2.3
C[N+](C)(C)CCOC(=O)C1(c2ccccc2)CCCC1,-8.2,24.1%,0.2,-6.8,-15.3,1.1,-15.3,.
CCN(C(=O)C(C)OC(=O)C1C(C(=O)OC)=C(C)NC(C)=C1C(=O)OC)c1ccccc1 (stereo not given),-2.0,.,-1.8,2.6,1.0,0.5,-15.4,-1.3
COc1ccc(C(=O)O)cc1S(=O)(=O)N(C)C,5.1,4.2%,26.2*,-0.4,-1.4,0.0,-18.3,-1.0
COc1ccc(NC(=S)N2CCN(C/C=C/c3ccccc3)CC2)cc1OC,1.4,-5.6%,9.8,-1.4,-8.0,0.3,7.7,.
O=C1/C(=C/c2cccnc2)Cc2ccc(Cl)cc21,1.0,.,3.8,-2.6,-6.8,0.0,-21.4,2.7
NS(=O)(=O)c1ccc(CCNC(=O)c2ccc([N+](=O)[O-])s2)cc1,2.5,.,2.2,3.0,0.3,0.2,44.8,-0.1
O=C(O)CCn1c(SCCOc2ccccc2F)nc2ccccc21,3.0,.,-0.2,0.3,-0.7,0.8,-10.1,2.6
CCc1ccc(N=C2NC(=O)/C(=C/c3cc(OC)c(OC)c(OC)c3)S2)cc1,-0.7,.,2.6,4.4,23.5,-1.0,46.0,1.8

Single records (already shown). Values in the order: LANA-H2B inh, Vif TR-FRET, RanGTP-Impb inh, Beta cell apopt, Calb FLC, Bfl-1 A1 inh, T cruzi repl, MLL AF4-AF9 inh
`CC1CC(C)CN(S(=O)(=O)N2CCCC(C(=O)NC3CCCCC3)C2)C1` (stereo not given) is listed as -4.2, ., 3.9, 2.0, 0.6, 0.2, -0.7, 0.0
`CCNC(=O)C(Cc1ccccc1)NC(=O)OCc1ccccc1` (stereo not given) is listed as 2.3, -10.2%, 3.2, -6.9, 5.3, 0.0, 0.5, 0.1
`CCN(C(=O)C(C)OC(=O)C1C(C(=O)OC)=C(C)NC(C)=C1C(=O)OC)c1ccccc1` (stereo not given) is listed as -2.0, ., -1.8, 2.6, 1.0, 0.5, -15.4, -1.3
`CC(=O)N1CCN(c2ccnc3cc(Cl)ccc23)CC1` is listed as -3.5, 23.8%, 1.7, -10.9, 0.9, -0.4, 2.6, 1.6
